Anaer choline gr = growth inhibitors of anaerobic choline-fed gram-negatives, minimal medium, absorbance | Gram-negative bacterium anaerobic choline minimal medium; active compounds read low; many inactives read as strong as hits in the columns shown | AID 1963822, 2024 | 55,000 tested, 0.2% active | calls only;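 active means growth z-score on choline under -2 at 7 or 20 h with little or no fall on glycerol, limits in tiers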;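 further: stock transfer was 300 nL into about 50 µL; the organism is E. coli; final concentration not given here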
Anaer choline gr early = recorded beside Anaer choline gr, whose call it bears; z-score; measured here: choline growth z-score, timepoint 1;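 score of optical density at 7 h as mean of two plates; lower means less growth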
An asterisk follows results filed as active; i = inactive; & = joins results of further samples. Some of the compounds tested; count on the stated rates, not on these rows.

Values run as follows: Anaer choline gr, Anaer choline gr early
1) CC(C)(C)OC(=O)Cn1nc2ccc(S(=O)(=O)N3CCSCC3)cn2c1=O
  i, -1.7
2) CS(=O)(=O)n1cnc2ccccc21
  i, -0.11
3) CCc1cc2c(NC3CCCCC3)ncnc2s1
  i, -1.4
4) O=C(NCc1ccc2c(c1)OCO2)c1cccc(-c2nc(-c3cccc(F)c3)no2)c1
  i, 0.68
5) Cc1c(S(=O)(=O)N2CCC(c3c(C)n(Cc4cccc(Cl)c4)c4ccccc34)CC2)cnn1C(F)F
  i, 0.14
6) Cc1ccc(C(=O)Nc2onc3c2CC(C)CC3)cc1 (stereo unspecified)
  i, -2.9
7) Cc1cc(OC(=O)c2cc(-c3ccc4c(c3)OCCO4)on2)ccc1Cl
  i, 1
8) Cn1c(=O)c(=O)n(CC(=O)N2CCN(Cc3ccccc3)CC2)c2cccnc21
  i, 0.26
9) Oc1ccc(C2COc3cc(O)ccc3C2)cc1 (stereo unspecified)
  i, -0.5&1.5
10) Cc1ccc(Nc2nncc(=O)[nH]2)c(C)c1
  i, -0.28
11) O=C(NC1CC1)c1ccc(OCC2CCCN2C(=O)C2CCCO2)cc1 (stereo unspecified)
  i, 1.3
12) O=C(Nc1ccc2c(c1)OCCO2)n1ncc2ccccc21
  i, -0.23
13) O=S(=O)(c1ccc(-c2nnc(C3CCCC3)o2)o1)N1CCOCC1
  i, 0.82
14) C=CCn1ccc2c(OCC(=O)Nc3cc(C)on3)cccc2c1=O
  i, 0.9
15) Cc1ccccc1NC(=O)N1CCN(c2ccc(=O)n(-c3ccc(F)cc3)n2)CC1
  i, 0.07
16) COC(=O)c1cccc(NC(=O)CSc2nccc(N3CCN(c4ccccc4OC)CC3)n2)c1
  i, -0.12
17) Cc1nn(-c2nc3ccccc3[nH]2)c2c1C(c1ccc(F)cc1Cl)CC(=O)N2 (stereo unspecified)
  i, 1
18) CCN(CC)C(=O)CSc1nnc2c3ccccc3nc(-c3ccc(F)cc3)n12
  i, -0.21
19) CCOC(=O)c1cc2ccsc2n1CC(=O)N(C)C1CCCCC1
  i, -1.3
20) O=S(=O)(c1cc(-c2nnc(C3CCC3)o2)co1)N1CCCCC1
  i, -0.01

Retrieved by compound from above (2):
Values run as follows: Anaer choline gr, Anaer choline gr early
15) Cc1ccccc1NC(=O)N1CCN(c2ccc(=O)n(-c3ccc(F)cc3)n2)CC1
  i, 0.07
6) Cc1ccc(C(=O)Nc2onc3c2CC(C)CC3)cc1 (stereo unspecified)
  i, -2.9

(more compounds)
Values run as follows: Anaer choline gr, Anaer choline gr early
21) O=C(c1nc(-c2ccccc2)n(-c2ccccc2)n1)N1CCc2ccccc2C1
  i, -0.95
22) O=C1COc2cc(S(=O)(=O)N3CCC(C(=O)NC4CC4)CC3)c(Cl)cc2N1
  i, -0.08
23) COc1ccc(NC(=O)CC2CCN(S(=O)(=O)c3ccc4c(c3)CCN4C(C)=O)CC2)cc1
  i, -0.17
24) Cc1cccc(N2CCN(S(=O)(=O)c3ccc(-c4nnc(C5CC5)o4)o3)CC2)c1
  i, -0.45
25) CCOC(=O)CCNC(=O)N1CCC(N2CCN(Cc3ccccc3)C(=O)C2=O)CC1
  i, -0.19
26) Cc1noc2ncnc(N3CCCC(C(=O)NCc4ccccc4)C3)c12 (stereo unspecified)
  i, -1.1
27) COc1ccc(NC(=O)C2=Cc3ccc(C)cc3OC=C2)cc1Cl
  i, 1.8
28) O=S(=O)(NC1CCCCC1)c1ccc(S(=O)(=O)N(Cc2ccccc2)CC2CCCO2)cc1 (stereo unspecified)
  i, 1.3
29) O=C(NC1CC1)c1nc(-c2ccc(S(=O)(=O)N3CCCCC3)cc2)no1
  i, -0.68
30) Cc1cc2nc(CSc3nnc(NC(=O)Nc4cccc(F)c4)s3)cc(=O)n2o1
  i, 0.14
31) O=c1[nH]c2cc(Cl)c(S(=O)(=O)N3CCOCC3)cc2[nH]1
  i, -0.3
32) CNC(=O)c1c(NC(=O)c2nc3ccccc3s2)sc2c1CCC2
  i, -0.18
33) CN(CC1CCCO1)S(=O)(=O)c1ccc(C(=O)Nc2nc3c(F)cc(F)cc3s2)cc1 (stereo unspecified)
  i, -0.19
34) Cc1cc(C2CCCN2C(=O)c2cc(-c3ccc(F)cc3)no2)no1 (stereo unspecified)
  i, 0.32
35) Cc1ccc(N2C(=O)Nc3ccccc3S2(=O)=O)cc1C
  i, -0.33
36) COc1ccc(OC)c(CNC(=O)c2ccc3noc(-c4ccc(Cl)cc4)c3c2)c1
  i, 1.4
37) O=C(NC1CC1)c1ccc(NC(=O)c2nsc3ccccc23)cc1
  i, 0.21
38) Cc1cccc(-c2nccc(Oc3ccc(C(=O)NCCC4=CCCCC4)cc3)n2)c1
  i, 0.76
39) Cc1ccc(NC(=O)COc2cc(C)c3c(-c4cccc(C)c4)nn(-c4ccccc4)c3n2)cc1
  i, -0.66
40) CCCc1cc(C2CCCN2C(=O)c2cc(C3CCCCC3)no2)no1 (stereo unspecified)
  i, -0.29
41) COc1cc(C2CC(=O)Nc3c2cnn3-c2ccc3nnc(C)n3n2)ccc1O (stereo unspecified)
  i, 0.32
42) O=C(NCc1cccnc1)c1ccc(CN2CC(=O)N3CSCC3C2=O)cc1 (stereo unspecified)
  i, -0.94
43) OC(CN1CCN(Cc2ccccc2)CC1)c1ccc2cc[nH]c2c1 (stereo unspecified)
  i, 0.22
44) Cc1ccc2cnn(CCCC(=O)NCc3ccccc3)c2c1
  i, -0.4
45) Cc1cc(Cl)ccc1NC(=O)CCCn1nc(C)c2nn(-c3ccccc3)c(-n3cccc3)c2c1=O
  i, 0.45
46) CCCS(=O)(=O)c1nc2ccc(NS(=O)(=O)c3ccc4c(c3)CCCC4)cc2s1
  i, -0.05
47) CCCS(=O)(=O)N1CCc2[nH]nc(-c3ccccc3)c2C1
  i, 0.37
48) O=C(NCC1CCCO1)c1nc(Cn2c(=O)oc3ccc(Cl)cc32)no1 (stereo unspecified)
  i, -0.57
49) Cc1[nH]c(C(=O)N2CCC(CC(=O)NCc3ccc4c(c3)OCO4)CC2)c(C)c1C
  i, -2.1
50) O=C(CSc1nc(N2CCCCC2)nc2ccccc12)Nc1ccccc1
  i, -0.23
51) CCOC(=O)c1c(NC(=O)CSc2nnc(CNC(=O)COc3ccccc3)n2C)sc2c1CCCC2
  i, 0.13
52) CC(C)C(=O)N1c2ccccc2NC2=C(C(=O)CC(C)(C)C2)C1c1cccc(Cl)c1 (stereo unspecified)
  i, 0.2
53) CC(C)Oc1ccc2c(=O)c3cc(C(=O)O)ccc3oc2c1
  i, -0.15&1.1
54) CN1CCC2(CC1)N=C(c1ccc3c(c1)OCO3)CC(c1cc(Cl)ccc1O)N2 (stereo unspecified)
  i, -3.3
55) NC(=O)c1nsc2c(=O)n(CC(=O)NCc3ccco3)cnc12
  i, 0.61
56) O=C(c1c(-c2ccccc2)nnc2ccccc12)N1CC=C(c2ccccc2)CC1
  i, 0.21
57) CCOC(=O)C1CCN(c2cc(-c3nc(-c4ccccc4)no3)c3ccccc3n2)CC1
  i, 0.18
58) Cc1cc(C2CCCN2C(=O)Cn2nc(C(F)(F)F)cc2C)on1 (stereo unspecified)
  i, -0.9
59) COc1cccc(CNC(=O)c2ccc(CSc3nc4ccncc4n3Cc3cccc(C)c3)cc2)c1
  i, 1.7
60) CCCNCc1cc(=O)n2[nH]c(NCc3ccccc3)nc2n1
  i, 0.24
61) COc1ccccc1NC(=O)Cc1noc2ccccc12
  i, -0.87
62) CC(C)(C)NC(=O)C1CCC2C3CCC4NC(=O)C=C[C@]4(C)C3CC[C@]12C (stereo partly specified)
  i, 0.33
63) CCCN1CCN(C(=O)CN2C(=O)CCn3nc(-c4cn(C)c5ccccc45)cc32)CC1
  i, 0.01
64) CC(C)c1ccc(S(=O)(=O)N2CCN(Cc3nc4cc(C(=O)N(C)C)ccc4n3C)CC2)cc1
  i, -0.22
65) Cc1csc(NC(=O)C2CCCN(S(=O)(=O)c3c[nH]c(C(=O)N4CCCC4)c3)C2)n1 (stereo unspecified)
  i, 0.75
66) O=C(NCC1CCCO1)C1CCCN(c2ncnc3c2oc2ccccc23)C1 (stereo unspecified)
  i, -0.54
67) Cc1ccc(-n2c(N3CCC(C(=O)NC(C)c4ccc(F)cc4)CC3)nc3ccsc3c2=O)cc1 (stereo unspecified)
  i, 0.73
68) c1ccc(OCc2nn3c(CSc4ccccc4)nnc3s2)cc1
  i, -0.14
69) CCOC(=O)c1cccc(NC(=O)CN2C(=O)COc3ccc(S(=O)(=O)N4CCC(C)CC4)cc32)c1
  i, 1.1
70) N=c1c2c3c(sc2nc2n1CCCCC2)CCCC3
  i, -2.9
71) O=C(Nc1ccccc1)C1Nc2cc(F)ccc2S(=O)(=O)N1 (stereo unspecified)
  i, -1.4
72) NC(=O)CSc1nc2ncccc2c(=O)n1-c1ccccc1
  i, -1.6
73) Cn1c(=O)n(Cc2ccc(F)cc2)c(=O)c2cnc(-c3ccncc3)nc21
  i, 0.58
74) O=C(OCCOCCO)c1ccccc1Nc1cccc(C(F)(F)F)c1
  i, 0.27
75) CCn1c(SCc2cc(=O)n3ccccc3n2)nc2cc(-c3ccccc3)sc2c1=O
  i, 0.49
76) Cc1ccc(NC(=O)Cn2c3c(c(=O)n4ncnc24)CCC3)cc1Cl
  i, -0.19
77) CCOc1ccc(C(C)C)cc1S(=O)(=O)Nc1ccc(-c2ccc(N3CCCC3)nn2)cc1
  i, 0.07
78) COc1ccccc1NC(=O)CSc1ncc2c(n1)-c1ccccc1N(Cc1ccc(C)cc1)S2(=O)=O
  i, -0.4
79) CC(C)NC(=O)N1CCC(n2nnc3ccccc3c2=O)CC1
  i, 0.08
80) COc1ccc(Cc2nnc3sc(-c4ccccc4OC)nn23)cc1
  i, 1.4

Complete entries, looked up by structure.
Listed for N=c1c2c3c(sc2nc2n1CCCCC2)CCCC3 → Anaer choline gr: i; Anaer choline gr early: -2.9
Listed for c1ccc(OCc2nn3c(CSc4ccccc4)nnc3s2)cc1 → Anaer choline gr: i; Anaer choline gr early: -0.14
Listed for Cn1c(=O)n(Cc2ccc(F)cc2)c(=O)c2cnc(-c3ccncc3)nc21 → Anaer choline gr: i; Anaer choline gr early: 0.58

(continued)
Values run as follows: Anaer choline gr, Anaer choline gr early
81) Cc1ccc(-c2nc(CSc3nc4c(c(=O)[nH]3)CCC4)c(C)o2)cc1
  i, -0.16
82) O=C(NC1CCCCC1)NC1CCN(C(=O)C2CC2)C1 (stereo unspecified)
  i, 0.3
83) O=S(=O)(c1ccc(Cl)cc1)N1CCC(n2c(C(F)(F)F)nc3cccnc32)CC1
  i, -0.37
84) O=C(NCCCc1ccccc1)c1c2c(nc3ccccc13)C(=O)N(C1CCCCC1)C2
  i, -0.57
85) Cc1noc2ncnc(N3CCC(C(=O)NC(C)C)CC3)c12
  i, 0.05
86) CC(C)n1c(CNS(=O)(=O)c2cccc3nsnc23)nc2cccnc21
  i, 0.21
87) COc1cccc(CNC(=O)CSc2nc3c(-c4ccccc4)csc3c(=O)n2C)c1
  i, 2.3
88) Cc1csc(NC(=O)C2CCCN(S(=O)(=O)c3cn(C)cn3)C2)n1 (stereo unspecified)
  i, 0.25
89) COC(=O)c1nc2ccccc2nc1N1CCN(c2cccc(C)c2C)CC1
  i, 0.1
90) CCCNC(=O)c1ccc2c(=O)n(-c3ccc(OC)cc3)c(SCC(=O)c3ccc(OCC)cc3)nc2c1
  i, -0.21
91) CCOc1ccc(-n2ccn3c(=O)[nH]nc3c2=O)cc1
  i, -1.3
92) COC(=O)c1nc2ccccc2nc1NCc1cccs1
  i, 2.1
93) Cc1ccc(S(=O)(=O)NC2=NCN(CC3CCCO3)CN2)cc1 (stereo unspecified)
  i, 0.25
94) CCOC(=O)c1ccc2c(c1)N(Cc1ccccc1C)C(=O)c1ccccc1S2(=O)=O
  i, 1.4
95) CCOCCSc1nc2c(cnn2CCO)c(=O)[nH]1
  i, -0.52
96) Cc1nc(C)c(C(=O)Nc2ccc(F)c(Cl)c2)s1
  i, -0.19
97) CC(C)N1CCN(c2ccc3nnc(C4CCC4)n3n2)CC1
  i, -4.6
98) CC1CCN(C(=O)c2cc(C3CC3)[nH]n2)CC1
  i, -1.4
99) COc1ccc(Cn2c(CN)nc3cccnc32)cc1
  i, 0.37
100) Cn1c(SCC(=O)N2CCCc3ccccc32)nc2c(-c3ccccc3)csc2c1=O
  i, 0.58
101) Brc1ccc(-c2nc(-c3ccc(-c4csc(C5CC5)n4)cc3)no2)o1
  i, 1.8
102) CCOc1ccc(NC(=O)CSc2nc3nc[nH]c3c(=O)[nH]2)cc1
  i, 0.43
103) COc1c(C)cnc2c1c(=O)n(CC(=O)Nc1cccc(C)c1)c(=O)n2C
  i, 1.4
104) COc1cccc(NS(=O)(=O)c2cc(-c3noc(C)n3)cs2)c1
  i, -0.15
105) CC(C)NS(=O)(=O)c1cc(-c2nnc(C(=O)N3CCCC3)o2)cs1
  i, -1.2
106) CCn1c(=O)c(=O)[nH]c2cc(-c3noc(-c4cnccn4)n3)ccc21
  i, -1.2
107) CC(C)n1c(=O)c(=O)[nH]c2cc(-c3noc(-c4ccccn4)n3)ccc21
  i, 0.46
108) Cc1ccc(-n2nnc(C(=O)OCc3ccccc3)c2C)cc1Cl
  i, 1.3
109) CN(C)C(=O)c1ccc2c(c1)N(CC(=O)NCc1cccnc1)C(=O)CO2
  i, -0.21
110) Cc1ccc(S(=O)(=O)Nc2ccc(-c3ccc(N4CCOCC4)nn3)cc2)c(C)c1
  i, 0.37
111) Cc1nnc(NC(=O)Cn2cnc3oc(C)c(C)c3c2=O)s1
  i, -0.45
112) O=C(NCCc1nc2cccnc2n1-c1ccccc1)Nc1cccc(Br)c1
  i, -0.04
113) CC(C)Cn1cc(C(=O)Oc2ccc3cnccc3c2)c2ccccc2c1=O
  i, 1.7
114) C#Cc1cccc(Nc2ncnc3cc4c(cc23)OCCOCCOCCO4)c1
  i, 0.52

Of the compounds above, these have a tert-butyl group.
Values run as follows: Anaer choline gr, Anaer choline gr early
1) CC(C)(C)OC(=O)Cn1nc2ccc(S(=O)(=O)N3CCSCC3)cn2c1=O
  i, -1.7
62) CC(C)(C)NC(=O)C1CCC2C3CCC4NC(=O)C=C[C@]4(C)C3CC[C@]12C (stereo partly specified)
  i, 0.33
